# HPGD inh: qHTS Assay for Inhibitors of HPGD (15-Hydroxyprostaglandin Dehydrogenase). purified HPGD, NADH fluorescence kinetic, PGE2 substrate. AID 894, 2007. 150,000 compounds, 4.3% hits. 15-hydroxyprostaglandin dehydrogenase [NAD(+)] (Homo sapiens), P15428. Potency, µM, without a hit: at the highest dose activity change, negative = inhibition, hits mostly inhibitors; active = well fitted inhibition curve with a large enough effect (not every such curve was filed as active); inconclusive = small, poorly fitted or top-dose-only effect, or another doubt; inactive = no such curve, though single readings can be large or run the other way;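 further: top concentration of the series not given in the record; plate controls included wells without enzyme; inactives centre near -10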
# Target sequence (P15428 whole entry, looked up): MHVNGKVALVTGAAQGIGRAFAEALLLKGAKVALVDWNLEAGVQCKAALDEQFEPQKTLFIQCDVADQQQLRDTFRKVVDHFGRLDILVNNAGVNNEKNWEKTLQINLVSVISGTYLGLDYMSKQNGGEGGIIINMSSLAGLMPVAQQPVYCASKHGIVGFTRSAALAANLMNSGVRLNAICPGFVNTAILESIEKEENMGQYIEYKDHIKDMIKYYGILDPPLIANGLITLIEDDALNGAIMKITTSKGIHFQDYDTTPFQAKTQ
#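 NADH formation kinetics: reaction with 30 uM PGE2 and 1 mM NAD+ (final), 20 nM enzyme, Tris-HCl pH 8 with Tween 20, after 15 min compound preincubation at room temperature. Fluorescence change, last versus first of five reads.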
# Starred values were filed as active, the others as inactive; ? = inconclusive; [ ] = dose if it differs, or a comment. On the % scale 0 is the no-effect control and ±100 the full control effect; potency means the concentration at half of the fitted maximal effect. Some of the compounds tested, so the mix of outcomes need not match the whole.
SMILES,HPGD inh
Nc1nc2c(ncn2[C@@H]2C=C[C@@H](CO)C2)c(=O)[nH]1,-15%
Cc1nc2c(C(=O)N3CCN(c4ccccn4)CC3)cnn2c(C)c1Cc1cccc(Cl)c1,?
CC(=O)NC1=NN(C(C)=O)C(C)(CS(=O)(=O)c2ccc(C)c(C)c2)S1 (stereo unspecified),-7%
COc1ccc(CCn2c(N)cc(=O)[nH]c2=S)cc1OC,-8%
O=C(Cc1c(Cl)cccc1Cl)OCC(=O)N1CCc2ccccc2C1,-15%
CC(C)C(=O)Nc1ccc(NC(=O)c2ccc([N+](=O)[O-])cc2Cl)cc1,-5%
CCOC(=O)N1CCN(S(=O)(=O)c2ccc(C(=O)Nc3nc4ccccc4s3)cc2)CC1,?
Fc1cccc(CN2CCCCCCC2)c1,-3%
COC(=O)[C@H](C)NC(=O)Nc1ccc(OC)c(OC)c1,-7%
Cc1ccc(C(=O)O/N=C/c2c(C(F)(F)F)nn(C)c2Sc2ccc(Cl)cc2)cc1,-3%
Cc1nc2ccccn2c1C(=O)c1ccccc1,-1%
CCCCCc1nnc(NC(=O)C(=O)OCC)s1,-14%
COc1ccc(NS(=O)(=O)Cc2ccccc2)cc1OC,-9%
Cc1cc(=O)oc(C)c1C(=O)N1CCCCC1,-3%
Cc1c(C(=O)N2CCN(c3ccccn3)CC2)oc2ccccc12,-21%
COC(=O)CSc1ccc2nnc(-c3ccc(F)cc3)n2n1,?
O=C(COC(=O)c1cccc2ccccc12)NCCCc1ccccc1,-27%
COc1ccc(C(F)(F)F)cc1NC(=O)c1nc2nc(C)cc(C(F)F)n2n1,?
CCOC(=O)c1ccc(-c2n[nH]c(=O)c3ccccc23)cc1,-22%
COc1ccc(C2N(S(=O)(=O)c3ccc(C)cc3)CCN2S(=O)(=O)c2ccc(C)cc2)cc1,-5%
COc1ccc2c(-c3ccccc3)cc(SCC(=O)NC3CCS(=O)(=O)C3)nc2c1 (stereo unspecified),-18%
O=C(c1cccc(F)c1)N1CCC(N2CCOCC2)CC1,-8%
Cc1ccc(-n2c(N)c(C(=O)N3CCOCC3)sc2=S)c(C)c1,7.9µM*
CCOC(=O)C1=C(C)NC(C)=C(C(=O)OC)[C@H]1c1cccc([N+](=O)[O-])c1,-7%
Fc1ccc(C(c2nnnn2CCc2ccccc2)N2CCCc3ccccc32)cc1 (stereo unspecified),-13%

# Next compounds.
SMILES,HPGD inh
COc1ccccc1N1C(=O)CC(Nc2ccc(N3CCOCC3)cc2)C1=O (stereo unspecified),-8%
CCn1c(COc2ccccc2C)nnc1SCC(=O)NC1CCCC1,-10%
Cc1cc(C)c(C)c(/C=C(/C#N)C(N)=S)c1C,-30%
Cc1ccc(-n2cc3ccc([N+](=O)[O-])cc3n2)cc1,-13%
N#CCCn1c(SCC(=O)NCC2CCCO2)nc2ccccc21 (stereo unspecified),?
COc1ccc(N)c2c1OCCC2=O,-7%
COc1ccccc1N1CCN(S(=O)(=O)c2ccc(Br)s2)CC1,-11%
CCOC(=O)c1ccc(NC(=O)CSc2nnc(CNC(=O)c3c(F)cccc3Cl)o2)cc1,-2%
Cc1ccc2nc(C)c(Cl)c(=O)n2c1,-15%
Clc1ccc(COn2c(-c3ccccc3)nc3ccccc32)cc1,6%
Cc1[nH]n(-c2cccc3ccccc23)c(=O)c1C=Nc1ccc2[nH]c(=O)[nH]c2c1,-10%
CCOCCCNC(=O)C1CCN(C(=O)N(C)C)CC1,-7%
Cc1nc2nc(COc3ccccc3)[nH]n2c(=O)c1C,-8%
COc1cc(C(=O)NC(c2ccccc2)c2ccccc2)cc(Cl)c1OC,-2%
CC(C)NC(=O)/C(C#N)=C/c1ccc2c(c1)OCCO2,28µM*
Cc1cc2c(cc(C(=O)OCC(=O)NCc3ccco3)n2C)s1,14µM*
Cc1sc(N/N=C/C=C/c2ccccc2)nc1-c1ccccc1,-12%
Cc1ccc(Oc2ccc(Oc3ccc(C)cc3)nn2)cc1,-10%
N#CCSc1nc(N)c(C#N)c(C2CCCCC2)c1C#N,-15%
CC(C)NCCCCOc1cccc(Br)c1,-2%
CCOC(=O)c1c(C)oc2c1c(C(c1cccnc1)N1CCN(C)CC1)c(O)c1ccccc12 (stereo unspecified),-28%
CCOC(=O)c1c(C)[nH]c(C(=O)COC(=O)c2oc3ccccc3c2C)c1C,-8%
CCc1cc2c3c(c(=O)oc2cc1OC)CCCC3,?
CCCC1O[C@@H]2C[C@H]3[C@@H]4CCC5=CC(=O)C=C[C@]5(C)C4[C@@H](O)C[C@]3(C)[C@]2(C(=O)CO)O1 (stereo partly specified),-14%
NC(=O)C1CCN(C(=O)CN2CCN(c3cccc(C(F)(F)F)c3)CC2)CC1,-7%

# Other compounds:
SMILES,HPGD inh
CCCc1nn(C)c(C(=O)Nc2ccc(C(C)(C)C)cc2)c1Cl,-5%
Cc1c(C(N)=O)sc2ncn(CC(=O)OC(C)C)c(=O)c12,-10%
O=C(NCc1ccco1)c1cc(-c2cccnc2)nc2ccccc12,-5%
CCCCOC(=O)Nc1nc2ccc(OC)cc2s1,-13%
COc1ccccc1/C=C/C=N/N1CCN(c2ccccn2)CC1,-4%
Fc1ccc2nc(Nc3nc4cc5c(cc4s3)OCO5)sc2c1,?
O=C1CCCCC1Sc1nnc(Cc2cccs2)n1CCc1ccccc1 (stereo unspecified),-16%
O=c1cc(-c2ccccc2)[nH]c2nc(Cl)ccc12,-7%
O=C(/C=C/c1c(Cl)cccc1Cl)N1CCN(c2ncccn2)CC1,?
Cc1cc(C)nc(NC2=NCC(=O)N2c2ccc(F)c(Cl)c2)n1,-3%
CCCOc1ccc(C(=O)NCC(c2ccco2)N(C)C)cc1 (stereo unspecified),-22%
CC(C)C(C)NC(=O)COc1ccc(-c2ccccc2)cc1 (stereo unspecified),-7%
Cc1ccc(NC(=O)CCN2CCN(C/C=C/c3ccccc3)CC2)cc1,-1%
Cn1c(-c2ccc3c(c2)OCO3)cnc1NCc1ccccc1,16µM*
Cc1ccc(NC(=O)CSc2ccc3nnc(CCNC(=O)c4ccccc4)n3n2)c(C)c1,-1%
Clc1ccccc1-c1nc2ccccc2c2nc3ccccc3n12,?
O=C(NC(C(=O)c1ccccc1)N1CCCCC1)c1ccccc1 (stereo unspecified),-9%
CC(C)N=C(N)/N=C(\N)Nc1ccc(Cl)cc1,0%
Cc1cnc(-c2nnc(N(C)C(=O)C3CCOC3)s2)cn1 (stereo unspecified),?
COC(=O)c1ccc(C23CC4(C2)[C@H](CN(Cc2ccc(-c5ccccc5)cc2)[C@@H]4c2ccccc2)C3c2ccccc2)cc1 (stereo partly specified),-10%
Nc1ccccc1Sc1ccccc1[N+](=O)[O-],-9%
COc1ccc(S(=O)(=O)N(CCCN2CCOCC2)Cc2cccc(OC)c2OC)cc1,0%
CN1C(=O)C(O)(C2COC(C)(C)CC2=O)c2cc(Br)ccc21 (stereo unspecified),-2%
Cn1cc(C(=O)c2ccc(Cl)cc2)cc1-c1nc2ccccc2n1C,-20%
COCCOC(=O)C1=C(C)NC(C)=C(C(=O)OC(C)C)[C@H]1c1cccc([N+](=O)[O-])c1,-11%

# Next records follow:
SMILES,HPGD inh
COc1ccc(C(OC(=O)c2ccco2)C(=O)NCc2ccc(C)cc2)cc1 (stereo unspecified),-22%
O=C(CCC(=O)c1ccc(Br)cc1)Nc1cccc(C(F)(F)F)c1,-9%
Cn1c(=O)c2c(nc(Cl)n2Cc2ccc(Cl)c(Cl)c2)n(C)c1=O,-7%
COc1cccc2[nH]c3c(Cl)ncnc3c12,?
O=c1[nH]cnc2cc(Cl)ccc12,-12%
COc1ccc2cc(C(=O)NCCO)sc(=O)c2c1OC,-8%
COc1ccc2c(c1)C(C)CC(C)(C)N2C(=O)NC1CCCCC1 (stereo unspecified),-6%
COCCOC(=O)c1cc(C(=O)c2cc(F)ccc2O)coc1=N,?
COc1ccccc1-c1nc(SCC(=O)O)n[nH]1,-11%
Cc1cnc(NC(=O)C(C)N2C(=O)C3CC=CCC3C2=O)s1 (stereo unspecified),-3%
C=CCOc1ccc(C2C(C#N)=C(N)N(Nc3ccccc3)C3=C2C(=O)CC(C)(C)C3)cc1OC (stereo unspecified),-24%
NS(=O)(=O)c1ccc(NCc2cc(Cl)ccc2OCc2ccc(F)cc2)cc1,-15%
CCOC(=O)C1=C(C)N(CCCC(=O)NCc2ccc3c(c2)OCO3)C(=O)NC1c1ccc(Br)cc1 (stereo unspecified),-9%
CCCNC(=O)c1ccc2nc(-c3ccccc3)c(-c3ccccc3)nc2c1,?
CSc1cccc(NC(=O)C2CCCN2S(=O)(=O)c2ccc(Br)s2)c1 (stereo unspecified),-8%
CC1CN(c2cc(=O)n(-c3cccc(Br)c3)c(=O)[nH]2)CC(C)O1 (stereo unspecified),-1%
COc1ccc(-c2nc3cnc(N(C)C)nc3n(CCc3ccccc3)c2=O)cc1,-28%
COc1ccc(-c2cc(C(=O)N/N=C/c3ccc4c(c3)OCO4)c3ccccc3n2)c(OC)c1,55%[activator]
Cc1cc(NC(=O)Cn2cnc3sc(C)c(-c4ccccc4)c3c2=O)no1,-19%
CC(=O)OCC(=O)[C@@]1(O)[C@H](C)C[C@@H]2[C@H]3CCC4=CC(=O)C=C[C@]4(C)[C@]3(F)[C@@H](O)C[C@@]21C,0%
Cc1nc2cc(NC(=O)N3c4ccccc4CC3C)ccc2n1C (stereo unspecified),-5%
COc1ccc(/C=C/C(=O)O)cc1COc1ccccc1C,-5%
CC(c1ccccc1)N1CCn2c(nc3cc(NC(=O)c4cccs4)ccc32)C1 (stereo unspecified),-25%
CCC(=O)N(Cc1ccco1)c1nc(-c2cc(OC)ccc2OC)cs1,-14%
CN1CCN(CC(=O)N(Cc2c(C#N)c3ccccc3n2C)c2ccccc2)CC1,-4%

# Ordered by value in HPGD inh (smallest number first): 7 of the compounds above
SMILES,HPGD inh
COc1ccc(C(OC(=O)c2ccco2)C(=O)NCc2ccc(C)cc2)cc1 (stereo unspecified),-22%
O=C(CCC(=O)c1ccc(Br)cc1)Nc1cccc(C(F)(F)F)c1,-9%
COc1ccc2cc(C(=O)NCCO)sc(=O)c2c1OC,-8%
COc1ccc2c(c1)C(C)CC(C)(C)N2C(=O)NC1CCCCC1 (stereo unspecified),-6%
Cc1nc2cc(NC(=O)N3c4ccccc4CC3C)ccc2n1C (stereo unspecified),-5%
Cc1cnc(NC(=O)C(C)N2C(=O)C3CC=CCC3C2=O)s1 (stereo unspecified),-3%
CC1CN(c2cc(=O)n(-c3cccc(Br)c3)c(=O)[nH]2)CC(C)O1 (stereo unspecified),-1%

# A stretch of the results above, for reference:
SMILES,HPGD inh
COc1ccc(C(OC(=O)c2ccco2)C(=O)NCc2ccc(C)cc2)cc1 (stereo unspecified),-22%
O=C(CCC(=O)c1ccc(Br)cc1)Nc1cccc(C(F)(F)F)c1,-9%
Cn1c(=O)c2c(nc(Cl)n2Cc2ccc(Cl)c(Cl)c2)n(C)c1=O,-7%

# Continuation.
SMILES,HPGD inh
O=C(c1ccccc1)c1cnc(Nc2ccccc2Cl)s1,-30%
COC(=O)c1cc(C)sc1NC(=O)C1C2C=CC(CC2)C1C(=O)O (stereo unspecified),-9%
CCn1c(=O)cc(OCC(=O)Nc2cccc(C)n2)c2ccccc21,-17%
O=C(N/N=C/c1cn(-c2ccccc2)nc1-c1ccccc1)c1ccco1,-23%
CCCCCOC(=O)Cc1c(O)c2ccccc2[nH]c1=O,-23%
CN1C(=S)SC(N(O)C(=O)Nc2ccccc2)C1(C)C (stereo unspecified),-1%
Cc1ccc(-n2c(=O)[nH]c3c(C(N)=O)nc(CC(C)C)nc32)cc1,-24%
Cc1oc(C(=O)O)cc1CSc1nnc(-c2ccccc2)n1C,-4%
CCC(=O)c1ccc(OCC(O)CN2CC(C)OC(C)C2)cc1 (stereo unspecified),-2%
CCn1ncc(C2=NOC(C(=O)Nc3cnn(C45CC6CC(CC(C6)C4)C5)c3)C2)c1C (stereo unspecified),-15%
Cc1c(N2C(=O)c3ccc4c5c(ccc(c35)C2=O)CC4)c(=O)n(-c2ccccc2)n1C,?
O=C(CSc1ncn[nH]1)Nc1nc(-c2ccccc2)ns1,-17%
O=C(NCc1ccco1)NCC(F)(F)F,1%
CC(C)OCCCN1CN(S(=O)(=O)c2cccc(Cl)c2)c2nc3ccccc3nc21,-8%
COC(=O)c1cc(C(=O)Nc2ccc(C)cn2)cc([N+](=O)[O-])c1,-9%
CC1CCN(CC(=O)Nc2cccc([N+](=O)[O-])c2)CC1,-5%
COCCCNC(=O)c1cn(CC(C)C)c(=O)c2c1c1ccccc1n2C,?
Cc1ccc(O)c(CP(=O)(c2ccccc2)c2ccccc2)c1,-15%
CCC1(C)Cc2ccccc2-c2nc3n(c(=O)c21)CC(C(=O)O)S3 (stereo unspecified),-19%
C=CCOC(=O)C1=C(C)N=C2SCCC(=O)N2C1c1ccc(OC(=O)c2ccco2)cc1 (stereo unspecified),-24%
CCc1ccccc1NC(=O)c1nnn(CC(=O)Nc2cccc(C)c2)c1N,-9%
CCN1C(=O)c2cccc3c(NC(=O)c4cccc(N5C(=O)CCC5=O)c4)ccc1c23,-14%
CCOC(=O)N1CCN(C(=O)c2ccc3c(=O)n(CCc4ccccc4)c(=S)[nH]c3c2)CC1,-12%
CCC(=O)N1CCc2cc(Br)cc(S(=O)(=O)NCCN3CCCCC3C)c21 (stereo unspecified),-11%
O=C(COc1ccc(S(=O)(=O)NCc2ccccc2)cc1Cl)N1CCOCC1,-9%
Cc1nc2c(C#N)c(C)[nH]n2c(=O)c1Cc1ccccc1,-20%
CCOc1ccc2cc(C#N)c(SCC(=O)N3CCC(C)CC3)nc2c1,?
O=c1c(Cc2ccccc2O)c(O)nc2n1CCCS2,0%

# Screening data (PubChem)
